Assay outcomes as filed in PubChem.
NPR1 antag = Natriuretic polypeptide receptor (hNpr1) antagonism - Primary qHTS | HEK293 hNpr1 GloSensor cGMP, ANP-stimulated luminescence | Potency, µM (series often up to 46.3 µM), for the others: top-dose activity change, negative = inhibition, actives largely listed as inhibitors | 1.6% of 76,000 active; active = well fitted inhibition curve with a large enough effect; inconclusive = small, poorly fitted or top-dose-only effect; inactive = no such curve, though single readings can be large or run the other way;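 note: nearly all actives have a fitted effect of over 60% in size; nearly all hits also lower the signal before the agonist is added; a reference antagonist and vehicle were the controls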
Target sequence (P16066 whole entry, looked up): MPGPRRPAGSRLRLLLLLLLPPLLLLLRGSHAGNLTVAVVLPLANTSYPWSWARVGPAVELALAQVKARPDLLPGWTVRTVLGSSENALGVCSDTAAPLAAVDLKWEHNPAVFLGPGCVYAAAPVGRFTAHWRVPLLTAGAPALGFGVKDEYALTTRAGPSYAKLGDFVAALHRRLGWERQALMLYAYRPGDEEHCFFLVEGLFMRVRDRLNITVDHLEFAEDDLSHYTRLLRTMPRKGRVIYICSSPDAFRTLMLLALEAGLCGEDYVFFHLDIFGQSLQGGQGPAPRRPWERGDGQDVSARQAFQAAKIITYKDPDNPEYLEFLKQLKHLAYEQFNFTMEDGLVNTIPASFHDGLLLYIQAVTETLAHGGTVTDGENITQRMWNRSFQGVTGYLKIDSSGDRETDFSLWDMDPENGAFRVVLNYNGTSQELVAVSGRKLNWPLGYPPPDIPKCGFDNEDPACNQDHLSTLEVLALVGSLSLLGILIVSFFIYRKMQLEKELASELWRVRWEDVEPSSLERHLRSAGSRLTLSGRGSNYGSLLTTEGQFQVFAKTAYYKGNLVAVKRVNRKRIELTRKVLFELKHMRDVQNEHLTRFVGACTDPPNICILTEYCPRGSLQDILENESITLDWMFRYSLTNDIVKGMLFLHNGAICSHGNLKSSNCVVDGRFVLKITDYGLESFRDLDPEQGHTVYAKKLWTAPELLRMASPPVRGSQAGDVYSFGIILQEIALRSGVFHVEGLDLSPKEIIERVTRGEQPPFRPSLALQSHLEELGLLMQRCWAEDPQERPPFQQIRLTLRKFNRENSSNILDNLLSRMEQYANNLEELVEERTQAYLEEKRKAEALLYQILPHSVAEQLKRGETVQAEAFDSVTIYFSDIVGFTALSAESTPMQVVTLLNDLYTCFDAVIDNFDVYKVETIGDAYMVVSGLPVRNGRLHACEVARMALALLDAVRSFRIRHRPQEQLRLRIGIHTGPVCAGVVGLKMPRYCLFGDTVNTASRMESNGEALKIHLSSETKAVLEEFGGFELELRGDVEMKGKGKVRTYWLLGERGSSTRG
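HEK293 cells stably expressing human Npr1 and cGMP GloSensor pGS-40F, loaded 2 h with 2% GloSensor reagent, given compound 30 min at room temperature. Luminescence read before and 20 min after 0.1 nM hNppA.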
Active calls of the source: *; ? = inconclusive; [ ] = another dose, or the depositor's remark. % is set by controls: 0 for no effect and ±100 for the full control effect; potency is the fitted concentration of half-maximal effect. These rows are one share of the data; the hit share may differ from the screen's.

canonical_smiles	NPR1 antag
Cc1ccc(-c2cn3c(n2)N(S(C)(=O)=O)CCC3)cc1	0%
O=C1OC[C@@H]2CCN(S(=O)(=O)Cc3ccccc3)Cc3ccc(F)cc3N12	2%[70.6 µM]
CCc1nncn1C1CCN(C(=O)c2cc(F)ccc2Cl)CC1	5%
c1ccc(CN2CCc3c(sc4ncnc(N5CCOCC5)c34)C2)cc1	-2%
O=C(Nc1nccs1)C1CC(=O)N(c2n[nH]c3ccccc23)C1 (stereo not drawn)	3%
COCCC(=O)NCC(=O)N1CCCCCNC(=O)CC1c1ccccc1 (stereo not drawn)	4%
Cn1ccc2c(C(=O)NCCC(N)=O)nc(-c3cccc(CO)c3)cc21	4%[70.6 µM]
CN1C[C@H](NCc2cccc(Cl)c2)CCC[C@@H](C(=O)N(C)Cc2cccnc2)CC1=O	1%
COc1cccc(OC)c1CN1C[C@@H](CO)[C@H](c2nc(C)no2)C1	-9%
CN1CCCC(CN(C)C(=O)c2cc(-c3cnn(CCO)c3)nc3ccccc23)C1 (stereo not drawn)	0%
CN1C(=O)[C@@H]2C[C@@H](O)CN2C2(CN(Cc3cccs3)C2)C1=O	0%[70.6 µM]
O=C(Nc1ccc(Cl)nc1)c1ccc2ccnn2c1	11%[70.6 µM]
COc1ccccc1-c1nc2cnccn2c1NCCC(=O)Nc1ccc2c(c1)OCO2	-2%
COCCOC1CCN(C(=O)Nc2ccccc2)CC1	2%
CC(C)NC(=O)N1CCC2(CC1)CC(CC(=O)O)CCO2 (stereo not drawn)	-3%
CC[C@H]1CN(S(=O)(=O)c2ccc(OC)cc2)CC[C@H]1CC(=O)N1CCOCC1	-13%[70.6 µM]
CC(C)NC(=O)C1(CCO)CCN(c2ncccn2)C1 (stereo not drawn)	-5%
CCn1nccc1C(=O)N1CCC2(CC1)c1[nH]c3ccccc3c1CCN2C	-4%
O=C(COc1ccccc1)NC1CCN(c2ccccc2)C1=O (stereo not drawn)	0%
Cn1c(CN2CCCN(S(=O)(=O)N3CCCC3)CC2)nnc1C1CC(N)C1 (stereo not drawn)	-1%
COCCc1noc([C@@H]2CC(F)(F)CN2C(=O)c2ccoc2)n1	4%
CCN(Cc1noc(C2CCC2)n1)C(=O)CC1C(=O)NCCN1CC(C)C (stereo not drawn)	-7%
COc1ccc(NC2CCCN(C(=O)c3cc(C(C)=O)n[nH]3)C2)cc1OC (stereo not drawn)	-7%
CCC(c1cccs1)N1C(=O)[C@H]2CN(S(=O)(=O)c3c(C)noc3C)C[C@H]2C1=O (stereo partly drawn)	-4%
COc1ccc(C(=O)N[C@H]2C[C@@H](Cc3cc(COc4ccccc4)on3)C2(C)C)cc1	?

Continued.
canonical_smiles	NPR1 antag
COCC1CN(C2CCC2)CC12CCN(C(=O)CCn1cc(C)cn1)CC2 (stereo not drawn)	-11%
COC[C@H]1C[C@@H](NC(=O)Nc2cccnc2)[C@H](O)[C@@H]1O	-2%[70.6 µM]
Cc1cc(C(=O)N2CCCC(c3nnc(Cn4ccnc4C)n3C)C2)no1 (stereo not drawn)	0%
NC(=O)[C@@H](Cc1ccccc1)NC(=O)[C@@]1(O)C[C@@H](O)[C@H](O)[C@@H](NC(=O)Nc2ccc(OC(F)(F)F)cc2)C1	1%
Cc1ccccc1CN1CC[C@H](c2nnc(-c3ccc(N(C)C)cc3)o2)C1	-6%[70.6 µM]
CC(=O)c1ccc(C(=O)N2CCCC(C(=O)c3cccc(C(F)(F)F)c3)C2)s1 (stereo not drawn)	-18%
CCn1ncc(N2CCC(NC(=O)Cc3ccc(C)cc3)CC2)cc1=O	-1%
O=C(Nc1ccc(Cl)cc1Cl)c1cccn2cncc12	-19%[70.6 µM]
O=C(C1CC=CC1)N1CCC(c2nc(CCOCC3CC3)no2)C1 (stereo not drawn)	6%
COC[C@@H]1CN(C(=O)C2=NNC(=O)CC2)C[C@H]1c1ccncc1	1%
COc1ccc(-c2nccn3cc(C(=O)NCCc4cccnc4)nc23)cc1	0%
Cc1cccc(NC(=O)Cn2c(-c3cnccn3)nc(C)c(CCO)c2=O)c1C	10%
Cc1cc(NCc2ccc(S(N)(=O)=O)cc2)n2nc(C)c(C)c2n1	-1%
C=CCN(C)C(=O)C[C@@H]1c2nc(NC(=O)c3ccco3)sc2C[C@@H]2[C@](C)(CO)[C@H](O)CC[C@]21C	4%
Cc1ccc(CN2Cc3[nH]cnc3C[C@H]2c2nc(C(C)C)no2)cc1	1%[70.6 µM]
Cc1cccc(CNC(=O)c2ccc(-c3nnc4ccc(NC(=O)C5CCC5)cn34)cc2)c1	-22%
COCCNC(=O)[C@@H]1C[C@@H](O)CN1C1CCN(C(=O)c2sccc2C)CC1	6%
NC(=O)c1ccc(CC2CCN(C(=O)C3CC=CC3)CC2)cc1	-1%
COCCNC(=O)[C@@H]1C[C@H](Oc2ccccc2)CN1C(=O)c1cc2ccc(OC)cc2[nH]1	-4%
COC[C@@H]1CN(S(=O)(=O)c2cccc(C)c2)C[C@H]1c1ccncc1	0%
Cn1nc2n(c1=O)CCC(NC(=O)c1n[nH]c3c1CC(C(C)(C)C)CC3)CC2 (stereo not drawn)	-1%
O=C(Nc1ccc2c(N3CCOCC3)ncnc2c1)c1cccc(Br)c1	-16%
CC(C)(C)C(=O)N1CC[C@H]2CC(=O)N([C@@H](Cc3ccccc3)C(N)=O)CC[C@H]2C1	0%[70.6 µM]
COc1ccc(OC)c(CN2CCNc3cnc(-c4ccccc4)cc3C2)c1	-22%[70.6 µM]
CN(Cc1nccn1Cc1ccccc1)C(=O)C1NCCc2[nH]cnc21 (stereo not drawn)	2%

The final 4 entries of the section before open the next one:
canonical_smiles	NPR1 antag
O=C(Nc1ccc2c(N3CCOCC3)ncnc2c1)c1cccc(Br)c1	-16%
CC(C)(C)C(=O)N1CC[C@H]2CC(=O)N([C@@H](Cc3ccccc3)C(N)=O)CC[C@H]2C1	0%[70.6 µM]
COc1ccc(OC)c(CN2CCNc3cnc(-c4ccccc4)cc3C2)c1	-22%[70.6 µM]
CN(Cc1nccn1Cc1ccccc1)C(=O)C1NCCc2[nH]cnc21 (stereo not drawn)	2%
Cc1c(Cl)cccc1NC(=O)Cn1c(C)cc2nc3n(c(=O)c21)CCCC3	-5%
Cc1nc(-c2cn(C3CCCN(C(=O)c4c(F)cccc4F)C3)nn2)no1 (stereo not drawn)	-3%
O=C(Cn1cccn1)N1CC[C@@H]2[C@@H](CCC(=O)N2CCc2cnc[nH]2)C1	4%
Cn1nccc1C(=O)NCCc1noc(-c2ccccc2)n1	-26%
C[C@@H](NC(=O)C1CCCC1)c1onc(-c2cccnc2)c1C(=O)O	0%[70.6 µM]
CC(C)CC(=O)N1CCC2(CC1)CC(Cc1cccc(F)c1)CCO2 (stereo not drawn)	-11%
CS(=O)(=O)N1CCCN(Cc2cn[nH]c2C(=O)O)CC1	-2%
COc1ccc(C(=O)N2CCc3ccc(C(=O)Nc4ccc5c(c4)OCCO5)cc32)cc1	?
CCn1ncc(N2CCC(NC(=O)CC(C)(C)C)CC2)cc1=O	6%
O=C(NC1CC1)c1cc(-c2ccccc2F)cc2c1OCCN2Cc1cccnc1	-29%[70.6 µM]
COc1ccc(C(=O)N2CCC3(CC2)Cc2ccccc2NC3=O)cc1	-9%
Cc1ccccc1C(=O)N1CCc2[nH]nc(C(=O)NCCCc3ccccc3)c2C1	-25%
COC[C@H]1CCCN1C(=O)C[C@@H]1O[C@H](CNS(=O)(=O)c2ccccc2)[C@@H](O)[C@H]1O	-1%[70.6 µM]
CCOCC(=O)N[C@@H]1CN(c2ccncn2)C[C@H]1CN(C)C	9%
O=C(NCCCc1ccccc1)C1CN(c2ccc(Cl)cc2)C(=O)N1 (stereo not drawn)	26%
Cc1ccc(-n2nc(C)c([C@@H]3C=C[C@@H](NC(=O)NC4CCCCC4)C3)c2C)cc1Cl	-20%[70.6 µM]
COC(=O)C1=CN(CC(=O)Nc2cc(Cl)ccc2C)S(=O)(=O)N=C1C	-12%
O=C(c1cnccn1)N1CCN2C(=O)N(C3CCOCC3)C[C@H]2C1	1%[70.6 µM]
CN(C)c1ccc(CN2Cc3[nH]cnc3C[C@H]2c2nc(-c3ccccc3)no2)cc1	-4%[70.6 µM]
CCCn1c(C)cnc1CC1CCN(C(=O)c2ccccn2)C1 (stereo not drawn)	3%
O=C(CN1C(=O)NC2(CCCCC2)C1=O)N1CCN(c2ccccc2)CC1	6%
COc1ncccc1Nc1cnc2ccc(N3CCOCC3)nn12	-10%[70.6 µM]
Cc1oc2c(c1C(=O)NC1CCCN(c3ncccn3)C1)C(=O)CCC2 (stereo not drawn)	3%
N#Cc1cc(-n2ccnc2-c2cc3n(n2)CCCNC3)ccc1N1CCCC1	-4%
CS(=O)(=O)N1CCC(C2CCN(C(=O)C3CC=CCC3)C2)CC1 (stereo not drawn)	-4%

The final 7 records of the part before lead into the next:
SMILES | NPR1 antag
CN(C)c1ccc(CN2Cc3[nH]cnc3C[C@H]2c2nc(-c3ccccc3)no2)cc1 | -4%[70.6 µM]
CCCn1c(C)cnc1CC1CCN(C(=O)c2ccccn2)C1 (stereo not drawn) | 3%
O=C(CN1C(=O)NC2(CCCCC2)C1=O)N1CCN(c2ccccc2)CC1 | 6%
COc1ncccc1Nc1cnc2ccc(N3CCOCC3)nn12 | -10%[70.6 µM]
Cc1oc2c(c1C(=O)NC1CCCN(c3ncccn3)C1)C(=O)CCC2 (stereo not drawn) | 3%
N#Cc1cc(-n2ccnc2-c2cc3n(n2)CCCNC3)ccc1N1CCCC1 | -4%
CS(=O)(=O)N1CCC(C2CCN(C(=O)C3CC=CCC3)C2)CC1 (stereo not drawn) | -4%
CN1CCN(c2cc(=O)c3ccnc(-c4ccc([S+](C)(=O)[O-])cc4)c3o2)CC1 | 1%[70.6 µM]
Cc1cc(C)c(C(=O)N2CCCC(Nc3ccccc3)C2)cc1C (stereo not drawn) | ?
CN(C)Cc1nc(C(=O)N2CCn3nc(CCC(=O)O)cc3C2)cs1 | 1%
Cc1nc2sccn2c1C(=O)NC1CC(c2nnc(CN(C)C)n2C)C1 (stereo not drawn) | 1%
O=C(c1ccoc1)N1CCN(c2cc(-c3ccc(Cl)cc3)[nH]n2)CC1 | 0%
CNC(=O)Nc1cccn2nc(-c3ccccc3)nc12 | -4%
CCOc1ccc(C(=O)N2CCC3(CC2)N=C(c2ccc(C)cc2)NO3)cc1 | -28%
COC(=O)[C@H](NC(=O)[C@@H]1[C@@H](NC(=O)Nc2cccc(OC)c2)CCN1C(=O)C=C(C)C)C(C)C | 6%
O=S(=O)(c1ccccc1)N1CCC(OC2CCN(Cc3cccnc3)CC2)CC1 | -3%
Cc1cnc(C(=O)NC2C[C@H]3CC[C@@H](C2)N3C(=O)c2cccs2)cn1 (stereo partly drawn) | 2%

Other structures:
SMILES | NPR1 antag
COc1ccc(CN2CCC(c3nn(Cc4ccccc4)c(=O)[nH]3)CC2)cc1 | 25%
CCn1cc(S(=O)(=O)N2CCCC2c2nncn2Cc2ccncc2)cn1 (stereo not drawn) | 4%
O=C(c1cc(CN2CCC(Cc3ccccc3)CC2)on1)N1CCN2CCCC2C1 (stereo not drawn) | 8%
Cc1nc2c(c(-c3ccc(Cl)cc3)n1)CCN([S+](=O)([O-])c1cccc(C(F)(F)F)c1)CC2 | -3%
Cc1ccc(C)c(C(=O)N[C@@H]2CN(Cc3ccccn3)C[C@H]2CN(C)C)c1 | -4%
O=C(Nc1ccccc1)N1CCC(Oc2ccccc2)C1 (stereo not drawn) | 4%
CC[C@@]1(O)CCN(C(=O)c2ccccc2OC(F)(F)C(F)F)C[C@H]1O | 4%
O=C(CN1CCCC(c2ccccc2)(c2ccccc2)C1)N1CCOCC1 | -6%
CCc1noc([C@@H]2CC(F)(F)CN2C(=O)Cc2ccncc2)n1 | 8%
COc1cc(-c2cc(C)c3cccc(OC)c3n2)cc2c1OCCN(C(=O)CCN)C2 | 0%

(listing goes on)
SMILES | NPR1 antag
O=C(c1cc(F)ccc1F)N1CC(Oc2ccc(-c3nc(-c4ccccc4)no3)cc2)C1 | ?
Cc1ccn(CC(=O)N2C[C@@H](CO)[C@H](c3ccccn3)C2)n1 | 2%
COCC(=O)NC[C@H]1CCN(Cc2cccc(C#N)c2)C[C@H]1N(C)C | 1%
Cc1ccc(S(=O)(=O)N2CCCN(C)c3ccccc32)cc1Cl | -27%
CSCC(=O)N[C@H]1CN(Cc2cn(CCO)nc2C)C[C@@H]1C1CC1 | 0%
CC(C)N1C[C@H](O)C[C@H]1c1nnc2n1CCN(C(=O)CN1CCCC1=O)CC2 | 0%
O=C(CCC1CCCC1)N1CCCC(c2noc(COc3ccccc3)n2)C1 (stereo not drawn) | -19%
CN1C[C@H](NC(=O)C2CCOCC2)CCC[C@@H](C(=O)NC2CC2)CC1=O | -16%[70.6 µM]
c1ccc(CNc2ncc(CN3CCC4(CCNCC4)C3)cn2)cc1 | 4%
COc1ccc(C(CC(=O)N2CCC(C(N)=O)CC2)c2ccccc2)cc1 (stereo not drawn) | 4%

Next section:
SMILES | NPR1 antag
COc1ccc(-c2noc([C@@H](C)NC(=O)C3CCCC3)c2C(=O)O)cc1 | -1%[70.6 µM]
O=C(CCC1CCN(S(=O)(=O)c2ccccc2)CC1)N1CCCCC1 | 1%
O=C(NCc1cccs1)c1ccc2c(c1)OCCN(c1ccccc1)C2 | -16%[70.6 µM]
Cc1cnc(C(=O)N2CCc3onc(-c4ccc(F)c(F)c4)c3C2)cn1 | -4%
COC(=O)[C@H](Cc1ccc(OC)cc1)NC(=O)[C@H]1CN(C(=O)Nc2ccccc2)CCN1C(=O)C1CCCCC1 | -3%
CC(C)c1nccn1CCCNC(=O)c1ccc(-c2ccccc2F)nc1 | 0%
